# NPYLR7 ag: agonists of mosquito NPYLR7 receptor, primary screen, cell-based, Aedes aegypti, calcium fluorescence, mosquito biting behavior. Aedes aegypti neuropeptide Y-like receptor 7 (NPYLR7). HEK293T NPYLR7/Galpha15, GCaMP6s calcium fluorescence. activation, % at 10 µM. 270,000 compounds, 0.15% hits; in the data active means activation above about 40%;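 further: 0% = vehicle and 100% = reference agonist at the receptor; some compounds past the cut are filed as inactive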
# NPYLR7 ag max-min: further read-out of NPYLR7 ag, marked with its call; activation, %; measured here: Max-Min RFU normalised activation; some inactives read as strong as hits;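 span of the calcium signal over five minutes; 0% = vehicle and 100% = native peptide agonist; compound fluorescence can raise it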
# Active calls of the source: *; & = joins results of further samples.
cpd	compound	NPYLR7 ag	NPYLR7 ag max-min
1	CCCCN(CC(=O)Nc1cc(-c2ccccc2)nn1-c1ccc(C)cc1)C(=O)c1ccc2c(c1)OCO2	-1	6
2	COc1ccsc1S(=O)(=O)Nc1nnc(-c2ccccc2Cl)s1	6	3
3	CCCCn1c(=O)c2c(nc3n2CC(C)=NN3CC(N)=O)n(C)c1=O	4	1
4	c1coc(-c2cc(C3CCN(C[C@@H]4CCCN5CCCC[C@H]45)CC3)[nH]n2)c1	2	2
5	CC(C)n1c(C2CC(=O)N(c3cccc4ccccc34)C2)nc2ccccc21 (stereo not given)	-2	0
6	C#CCOc1ccc(NC(=O)N(C)CC(O)C2CC2)cc1 (stereo not given)	4	-3
7	Cc1ccc(CNC(=O)c2c[nH]c3c(c(C)nn3-c3ccccc3)c2=O)cc1	-1	24
8	Cc1cc(C)c(S(=O)(=O)NCCn2nc(-c3ccco3)ccc2=O)cc1C	-1	-4
9	O=C(O)c1cccc(NS(=O)(=O)c2ccc(S(=O)(=O)N3CCCCC3)cc2)c1	14	8
10	CC(C)Cc1nc(N2CCCN(S(=O)(=O)Cc3ccccc3)CC2)c2c(-c3cccc(C(F)(F)F)c3)noc2n1	6	34
11	Cn1cc(Br)cc1C(=O)NCCn1cnnc1C1CC1	6	2
12	O=C(Cn1nc2c(c1NC(=O)Cc1noc3ccccc13)CSC2)NCC1CCCO1 (stereo not given)	-4	-4
13	COCc1cc(C)nc(OCC(=O)N/N=C\c2ccc(-c3ccc(Br)cc3)o2)c1C#N	3	14
14	CCCCc1ccc(-c2ccc(-n3cncc3C(=O)NCCOc3ccc(OC)cc3)cc2)cc1	11	11
15	O=[N+]([O-])c1ccc(C=NNc2ccc(Cl)c(Cl)c2)o1	-1	-3
16	O=C(c1ccccc1)C1CCN(C(=O)C2CCC(=O)N(CCCc3ccccc3)C2)CC1 (stereo not given)	5&0	2&-2
17	CC(NC(=O)C1(OCc2ccccc2)CCOCC1)c1ccc(Cl)s1 (stereo not given)	0	0
18	CC(C)OCCCNc1ccc2nnc(CCNC(=O)c3ccccc3)n2n1	2	-11
19	O=C(Cn1cc2ccccc2n1)N1CCOc2ccc(CN3CCN(CCO)CC3)cc2C1	15	8
20	O=S(=O)(NCCOc1ccc2nnc(-c3ccccc3)n2n1)c1ccc2ccccc2c1	-5	-5
21	CN(CC(=O)NCCc1ccccc1F)C(=O)c1ccc(Br)s1	12	8
22	Cc1cc(-c2nnc(NC(=O)C3CCN(S(=O)(=O)c4cccs4)CC3)o2)n(C)n1	-4	-1
23	CCNC(=O)C1(C)CCCCN1Cc1ccc(C(=O)OCC)o1 (stereo not given)	2	0
24	CCCCN(Cc1ccccc1)C(=O)Nc1cn(C)c2ccccc12	-4	-8
25	CC(C)N1CCC(Nc2nc(C(F)(F)F)nc3ccccc23)CC1	3	1

# Shown screen by screen: 4 of the compounds above.
18: CC(C)OCCCNc1ccc2nnc(CCNC(=O)c3ccccc3)n2n1
19: O=C(Cn1cc2ccccc2n1)N1CCOc2ccc(CN3CCN(CCO)CC3)cc2C1
20: O=S(=O)(NCCOc1ccc2nnc(-c3ccccc3)n2n1)c1ccc2ccccc2c1
21: CN(CC(=O)NCCc1ccccc1F)C(=O)c1ccc(Br)s1
Screen / compound no.	18	19	20	21
NPYLR7 ag	2	15	-5	12
NPYLR7 ag max-min	-11	8	-5	8

# Next section
cpd	compound	NPYLR7 ag	NPYLR7 ag max-min
26	CCc1nc(NC(=O)NCc2cccc(SC)c2)nn1C	1	13
27	Cc1ccc(C(=O)Nc2nnc(SCc3ccccc3)s2)cc1C	-1	1
28	COc1cc(/C=C2N=C(/C=C/c3ccc(C)cc3)OC/2=O)cc(OC)c1OC	-1	-6
29	C=CCCC(=O)NCC(C)Oc1cccc(F)c1 (stereo not given)	-1	-7
30	C=CCNC(=O)Cn1c(CO)cnc1SCC(=O)Nc1ccccc1C(F)(F)F	-3	-4
31	IC12CCC(c3ccccc3)(CC1)CC2	-1	7
32	COc1ccccc1OS(=O)(=O)c1cn(C)c(=O)n(C)c1=O	0	-2
33	O=C(C1CC=CCC1)N1CCC(n2cnc3ccc(F)cc32)CC1 (stereo not given)	-8	-5
34	Cn1ncc(Br)c1C(=O)Nc1ccc(F)cc1F	-6	-14
35	NC(=O)CSc1ccc(-c2ccccc2)nn1	0	-1
36	CCOC(=O)C1C(=O)CC(O)(c2ccc(Br)cc2)CC1C=C(Cl)Cl (stereo not given)	1	14
37	COCCNC(=O)c1ccccc1N1CCC(NC(=O)c2cccc(C)c2)CC1	-7	-6
38	CCOc1ccccc1CNC(=O)c1ccc(-c2n[nH]c3c2CCc2cc(OC)ccc2-3)cc1	7	4
39	Cc1nc(-c2ccc(CCNC(=O)c3cc(F)cc(F)c3)s2)cs1	-4	-6
40	O=C(COCc1ccccc1)N(CCCN1CCOCC1)CC(=O)N(Cc1ccc(F)cc1)Cc1ccco1	-3	7
41	CC(C)(C)CC(=O)Nc1ccccc1-c1ncc[nH]1	0	-6
42	CCc1nc2ccc(C(=O)NCc3ccccc3OC)cn2c1N(C)C(=O)C1CCCCC1	-5	-10
43	Cc1ccc(C(=O)OC(C)c2nc(-c3cccnc3)no2)c(O)c1 (stereo not given)	1	5
44	CCCc1cc(C(=O)N(C)C(C)c2ccc3c(c2)OCCO3)n[nH]1 (stereo not given)	1	13
45	CC(C)CCNc1nnc(C(C)C)s1	11	7
46	CCOC(=O)C1CCCN(C(=O)c2cc(C)n3nc(C(C)(C)C)cc3n2)C1 (stereo not given)	18	15
47	Cn1c(=O)c2[nH]c(CN3CCN(c4ccc(F)cc4)CC3)nc2n(C)c1=O	0	-1
48	C=C(C)CN(CC)Cc1ccccc1OCC(O)CN(C)C1CCCCC1 (stereo not given)	6	1
49	Nc1cnc(-n2cnc3ccccc32)cn1	8	3
50	CCOC(=O)C1CCCN(C(=O)c2coc(CN(CCc3c[nH]c4ccccc34)Cc3ccc(C(F)(F)F)cc3)n2)C1 (stereo not given)	12	25

# 18 compounds already listed, arranged by SMILES length, rising:
cpd	compound	NPYLR7 ag	NPYLR7 ag max-min
45	CC(C)CCNc1nnc(C(C)C)s1	11	7
31	IC12CCC(c3ccccc3)(CC1)CC2	-1	7
35	NC(=O)CSc1ccc(-c2ccccc2)nn1	0	-1
29	C=CCCC(=O)NCC(C)Oc1cccc(F)c1 (stereo not given)	-1	-7
34	Cn1ncc(Br)c1C(=O)Nc1ccc(F)cc1F	-6	-14
26	CCc1nc(NC(=O)NCc2cccc(SC)c2)nn1C	1	13
41	CC(C)(C)CC(=O)Nc1ccccc1-c1ncc[nH]1	0	-6
33	O=C(C1CC=CCC1)N1CCC(n2cnc3ccc(F)cc32)CC1 (stereo not given)	-8	-5
43	Cc1ccc(C(=O)OC(C)c2nc(-c3cccnc3)no2)c(O)c1 (stereo not given)	1	5
44	CCCc1cc(C(=O)N(C)C(C)c2ccc3c(c2)OCCO3)n[nH]1 (stereo not given)	1	13
37	COCCNC(=O)c1ccccc1N1CCC(NC(=O)c2cccc(C)c2)CC1	-7	-6
36	CCOC(=O)C1C(=O)CC(O)(c2ccc(Br)cc2)CC1C=C(Cl)Cl (stereo not given)	1	14
46	CCOC(=O)C1CCCN(C(=O)c2cc(C)n3nc(C(C)(C)C)cc3n2)C1 (stereo not given)	18	15
47	Cn1c(=O)c2[nH]c(CN3CCN(c4ccc(F)cc4)CC3)nc2n(C)c1=O	0	-1
42	CCc1nc2ccc(C(=O)NCc3ccccc3OC)cn2c1N(C)C(=O)C1CCCCC1	-5	-10
38	CCOc1ccccc1CNC(=O)c1ccc(-c2n[nH]c3c2CCc2cc(OC)ccc2-3)cc1	7	4
40	O=C(COCc1ccccc1)N(CCCN1CCOCC1)CC(=O)N(Cc1ccc(F)cc1)Cc1ccco1	-3	7
50	CCOC(=O)C1CCCN(C(=O)c2coc(CN(CCc3c[nH]c4ccccc34)Cc3ccc(C(F)(F)F)cc3)n2)C1 (stereo not given)	12	25

# (more compounds)
51	COc1cc(C)nc(N(Cc2ccccc2)S(=O)(=O)c2ccc(C)cc2)n1
  NPYLR7 ag: 2
  NPYLR7 ag max-min: 0

52	CN(CC(=O)Nc1nc2ccccc2[nH]1)Cc1cn[nH]c1-c1ccccc1
  NPYLR7 ag: 0
  NPYLR7 ag max-min: -2

53	CCC1(C)NC(=O)N(N=CC2CC=CCC2)C1=O (stereo not given)
  NPYLR7 ag: -1
  NPYLR7 ag max-min: 0

54	CC1(C)O[C@@H]2C[C@H]3[C@@H]4CCC5=CC(=O)C=C[C@]5(C)[C@@]4(F)[C@@H](O)C[C@]3(C)[C@]2(C(=O)CO)O1
  NPYLR7 ag: -9
  NPYLR7 ag max-min: -11

55	Cc1nnc(CN2CCOc3c(O)cc(-c4csc5ccccc45)cc3C2)o1
  NPYLR7 ag: 5
  NPYLR7 ag max-min: 2

56	Cc1ccc(C(=O)Nc2c(-c3cc(C)cc(C)c3)nc3ccccn23)cc1
  NPYLR7 ag: -12
  NPYLR7 ag max-min: -11

57	COc1cn(CC(=O)NCC2CCCO2)c(CN2CCN(c3ccc(F)cc3)CC2)cc1=O (stereo not given)
  NPYLR7 ag: 1
  NPYLR7 ag max-min: 1

58	CC1(C)Oc2ccccc2C(=O)C1Sc1ccccc1 (stereo not given)
  NPYLR7 ag: -9
  NPYLR7 ag max-min: -12

59	CCN(CC)c1ccc2cc(-c3nnc(Nc4ccc(Cl)cc4Cl)s3)c(=O)oc2c1
  NPYLR7 ag: -16
  NPYLR7 ag max-min: -21

60	O=C(CSc1nc2ccccc2s1)NN=Cc1ccccc1C(=O)O
  NPYLR7 ag: -4
  NPYLR7 ag max-min: -10

61	COC(=O)c1ccc(Cn2nc(C3CC3)c3cnn(-c4ccccc4C)c3c2=O)cc1
  NPYLR7 ag: 7
  NPYLR7 ag max-min: 5

62	Cc1ccc(S(=O)(=O)N2CCN(c3nc(-c4ccco4)nc4ccccc34)CC2)cc1
  NPYLR7 ag: -4
  NPYLR7 ag max-min: 6

# Bioassay records from PubChem.

# An excerpt, so the mix of outcomes need not match the whole.
